miR-21 FLuc = raises the signal of a miR-21 reporter | HeLa miR-21 FLuc reporter, luciferase, 48 h | Potency, µM (top dose mostly 38.3 µM), for inactives: at the top dose reporter change, positive = more light | 340,000 tested, under 10 active | AID 2288; active = well fitted rising curve with a large enough effect; inconclusive = small, poorly fitted or top-dose-only effect; inactive = no such curve, though single readings can be large or run the other way;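 note: % of control where 0% means no effect; miR-21 action dims this reporter so a rising signal means less miR-21 action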
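Compounds were titrated across several concentrations (up to approximately 40 uM) and incubated 48 hours with HeLa miR-21-FLuc reporter cells (miR-21 target sequence downstream of FLuc, endogenous miR-21). Readout was firefly luciferase luminescence after lytic detection reagent.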
Rango complex inh = prevents formation of the Rango-importin beta complex. Potency, µM (highest dose often 92.2 µM), for the others: top-dose inhibition of complex formation. Q14974. Rango CFP/YFP FRET sensor + importin beta, 45 min. 0.031% of 340,000 active. AID 540263; active = rising FRET ratio curve, often small or poorly fitted; inconclusive = mostly compound fluorescence or quenching in the first reads; inactive = flat curves in all reads;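 note: potency is the fitted concentration of half-maximal effect; 0% = DMSO wells and 100% = buffer wells lacking importin beta; nearly all actives have a fitted effect of over 15% in size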
Target sequence (Q14974 whole entry, looked up): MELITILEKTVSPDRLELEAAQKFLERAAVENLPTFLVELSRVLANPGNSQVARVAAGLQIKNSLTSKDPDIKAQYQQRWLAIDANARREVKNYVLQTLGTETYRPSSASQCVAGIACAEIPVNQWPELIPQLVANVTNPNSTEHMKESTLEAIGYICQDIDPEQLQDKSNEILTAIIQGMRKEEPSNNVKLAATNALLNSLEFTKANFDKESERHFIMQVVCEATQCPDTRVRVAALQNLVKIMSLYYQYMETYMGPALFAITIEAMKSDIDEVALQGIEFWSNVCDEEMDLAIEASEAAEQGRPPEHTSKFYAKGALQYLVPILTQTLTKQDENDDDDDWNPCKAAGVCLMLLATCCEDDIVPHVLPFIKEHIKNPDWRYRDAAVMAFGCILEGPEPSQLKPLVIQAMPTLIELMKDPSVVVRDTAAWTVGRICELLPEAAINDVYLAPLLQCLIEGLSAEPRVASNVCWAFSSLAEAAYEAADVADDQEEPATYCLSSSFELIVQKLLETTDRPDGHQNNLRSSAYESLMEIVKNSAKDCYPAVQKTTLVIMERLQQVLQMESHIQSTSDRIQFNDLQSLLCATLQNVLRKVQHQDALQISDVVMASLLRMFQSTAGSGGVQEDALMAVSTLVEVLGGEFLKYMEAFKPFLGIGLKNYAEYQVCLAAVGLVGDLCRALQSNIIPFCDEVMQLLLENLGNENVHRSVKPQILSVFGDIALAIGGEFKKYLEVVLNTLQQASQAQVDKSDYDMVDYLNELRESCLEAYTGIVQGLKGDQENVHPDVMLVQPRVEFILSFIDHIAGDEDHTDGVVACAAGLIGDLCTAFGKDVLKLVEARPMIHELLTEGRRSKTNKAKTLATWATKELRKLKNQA
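FRET biosensor Rango (snurportin 1 IBB between N-terminal EYFP and C-terminal Cerulean), 50 nM in PBS/1 mM DTT/0.02% Tween-20/0.1% BSA, preincubated 5 min RT with compound; 0.125 microM importin beta added, 45 min RT, CFP/YFP FRET ratio read.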
Rango dissoc inh = inhibition of RanGTP-driven Rango-importin beta dissociation; O95149+P62826; Biochemical FRET Rango-importin beta, RanGTP-induced dissociation; Potency, µM (titrated, usually from 46.1 µM), without a hit: at the top dose activity change, negative = inhibition; 0.071% of 340,000 active; AID 540253; active means falling FRET ratio curve, often poorly fitted, with flat reads before Ran was added; inconclusive means other falling curves, or compound fluorescence or quenching; inactive means flat or rising ratio curve;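 note: potency is the fitted concentration of half-maximal effect; % of control where 0% means no effect; nearly all actives have a fitted effect of over 45% in size; -100% = wells without RanGTP and RCC1; the record marks most hits as doubtful in a second field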
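Compounds sat 5 min at room temperature with 0.1 uM Rango biosensor plus 0.25 uM importin beta, then FRET pre-read. RanGTP-RCC1 (0.6 uM Ran, 2mM GTP, 0.2 uM RCC1) added for 45 min, and the CFP/YFP post-read measured blocked complex dissociation.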
GLA inh pH 4.5 = blocks human alpha-galactosidase A at pH 4.5; activity change, negative = inhibition, % at 105 µM; 230,000 tested, under 10 active; purified enzyme, 4-MU-alpha-Gal fluorescence, pH 4.5; P06280; AID 1467; inconclusive = small, poorly fitted or top-dose-only inhibition, or a rising curve; inactive = flat fitted curve, though single readings scatter; no compound was filed as active;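 note: 0% = full activity with enzyme and -100% = basal without enzyme; dose as in the result columns while the protocol names 77 µM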
The depositor's hits bear a star; ? = inconclusive; · = no result given.

SMILES	miR-21 FLuc	Rango complex inh	Rango dissoc inh	GLA inh pH 4.5
CC(=O)C1=C(O)C(=O)N(c2ccc(Br)cc2)C1c1ccc([N+](=O)[O-])cc1 (stereo not drawn)	-3%	2.5%	14%	·
Oc1ccc(Br)cc1-c1n[nH]c(=S)n1Cc1ccccc1	0%	-4.3%	3%	·
N#Cc1c(N)nc(SC2CCCCC2=O)c(C#N)c1-c1ccco1 (stereo not drawn)	·	?	?	·
O=C(Nc1ccccn1)c1ccc2c(c1)OCCO2	2%	-0.4%	21%	-4
COC(=O)c1cc(S(=O)(=O)NC2CCN(Cc3ccccc3)CC2)cn1C	1%	1.6%	-11%	-2
CCc1nnc(NC(=O)c2n[nH]c(=O)c3ccccc23)s1	0%	-0.2%	12%	1
CCN(Cc1ccccc1)C(=O)c1ccc(CNS(=O)(=O)c2ccc(C)cc2)cc1	2%	0.5%	5%	-4
Cc1cccc(C(=O)N/N=C/c2ccncc2)c1	-21%	0.7%	0%	-2
O=C(Nc1nnc(-c2ccc(F)cc2)o1)c1cccc([N+](=O)[O-])c1	9%	4.0%	7%	2
FC(F)(F)c1ccc(CN2CCCCCC2)cc1	-1%	1.6%	4%	-5
CCOC(=O)Cc1csc(NC(=O)COc2ccc(N(C)S(=O)(=O)c3ccc(C)cc3)cc2)n1	4%	0.2%	14%	-11
O=C(CSc1ncccn1)NC(=O)c1ccccc1	-3%	1.6%	4%	-25
CCOC(=O)c1c(C)[nH]c(C(=O)COC(=O)C2CC(=O)N(Cc3ccccc3)C2)c1C (stereo not drawn)	-25%	-1.0%	21%	-1
Cc1ccc(/C(N)=N/OC(=O)CN(C)S(=O)(=O)c2ccc(C)cc2)cc1	2%	-1.0%	-8%	·
CCOc1ccc(Cn2cc(F)c(=O)[nH]c2=O)cc1	0%	-0.8%	13%	-4
Cc1ccc(C(=O)Nc2ccc(Nc3ccccc3)cc2)cc1C	·	1.0%	1%	·
Cc1ccc(C(=O)OCc2cc3ccccc3[nH]c2=O)cc1	-1%	0.5%	2%	-4
Nc1nccc(NCCSCc2ccccc2)n1	·	1.9%	-3%	·
O=C1Nc2ccccc2C1=Nc1ccc(S(=O)(=O)Nc2nccs2)cc1	-2%	?	1%	-2
O=C(NNc1ncccc1-n1cccc1)c1ccc(Cl)cc1	0%	-2.6%	13%	-5

In the list so far, two have a nitro group on carbon.
SMILES	miR-21 FLuc	Rango complex inh	Rango dissoc inh	GLA inh pH 4.5
CC(=O)C1=C(O)C(=O)N(c2ccc(Br)cc2)C1c1ccc([N+](=O)[O-])cc1 (stereo not drawn)	-3%	2.5%	14%	·
O=C(Nc1nnc(-c2ccc(F)cc2)o1)c1cccc([N+](=O)[O-])c1	9%	4.0%	7%	2

(continued)
SMILES	miR-21 FLuc	Rango complex inh	Rango dissoc inh	GLA inh pH 4.5
O=C(CC1C(=O)NCCN1Cc1ccoc1)NCc1cccc(OC(F)(F)F)c1 (stereo not drawn)	3%	0.3%	-15%	-22
CCN(CC)c1ccc(/C=N/NC(=O)c2c(-c3ccccc3)noc2C)cc1	-8%	?	-19%	·
COc1ccccc1-c1nnc(SCc2nc3ccccc3s2)n1C	-26%	?	10%	-5
O=C1CCCc2cc3c(ccc4ccccc43)cc21	·	-3.7%	13%	·
C/C(N=Nc1nc2ccccc2s1)=N\Nc1ccccc1O	18%	4.4%	-5%	-1
CCOC(=O)N1CCC(N2Cc3cccc(C(=O)N4CCN(C5CCCCC5)CC4)c3C2=O)CC1	-8%	0.0%	?	-2
COC(=O)c1ccc(CN2CCc3ccc(NC(=O)c4ccncc4)cc3C2)cc1	22%	-0.9%	0%	·
Cc1n[nH]c(=S)n(/N=C/c2ccccn2)c1=O	-3%	0.1%	13%	3
Cc1ccccc1OCC(=O)NCCC1=CCCCC1	-24%	?	-6%	12
Cc1cc(C(=O)Nc2ccccc2[N+](=O)[O-])cs1	20%	-3.3%	-2%	·
COc1ccc(CN(C#N)c2nc(SC)nc(N(C)C)n2)cc1	-14%	-1.6%	-7%	7
O=C(NCCc1ccccc1)c1ccccc1Cl	13%	-2.1%	-2%	·
CCC(c1nnc(SCC(=O)N(C)c2ccccc2)n1Cc1ccccc1)N(C)C (stereo not drawn)	·	0.4%	0%	·
Cc1cc(NC(=O)c2cc(S(=O)(=O)N3CCCCC3)ccc2C)n(-c2ccccn2)n1	-5%	?	-15%	-1
CSc1nc(-c2ccccc2)[nH]c(=S)c1C(C)=O	0%	0.2%	3%	3
CCOC(=O)C1C(c2ccc(O)c(OCC)c2)NC(=S)NC1(O)C(F)(F)F (stereo not drawn)	1%	?	4%	-6
CC12CCC(C/C1=N\OC(=O)c1c(F)cccc1F)C2(C)C (stereo not drawn)	0%	0.9%	1%	-2
CC(C)NC(=O)CN1CCN(C(=O)CCl)CC1	16%	-6.0%	5%	5
Cc1cc2oc3ccc(NCCCN4CCOCC4)cc3c(=O)c2cc1C	·	?	?	·
Cc1cc(C)n(CC(O)Cn2c3ccccc3c3ccccc32)n1 (stereo not drawn)	1%	1.1%	-1%	-8
COc1ccc(-c2nn(-c3ccccc3)cc2/C=N/Nc2ccc(Cl)c(C(=O)O)c2)cc1OC	-9%	-0.2%	42%	-6
Cc1ccc(S(=O)(=O)N2CCOCC2)cc1C(=O)Nc1ccccc1F	-1%	?	-6%	·
COc1ccc(-n2c(Cc3cc(=O)[nH]c(=O)[nH]3)nnc2SCC(=O)Nc2cc(C(F)(F)F)ccc2Cl)cc1	-4%	-2.5%	-4%	7
COC(=O)c1sc2[nH]c(=S)n(N)c(=O)c2c1C	-3%	0.3%	-10%	-8
CCOC(=O)c1ccc(N=c2sc(C(=O)OC)cc(=O)n2Cc2ccco2)cc1	-16%	2.1%	0%	8
CCC/C(O)=C1\C(=O)CC(C)(C)CC1=Nc1ccccc1O	8%	-1.0%	-1%	3
Cc1ccc(NC(=O)CSc2n[nH]c(=O)n2C2CC2)cc1S(=O)(=O)N1CCOCC1	-12%	-1.4%	7%	-3
Cc1ccc(OCC(=O)NNC(=S)NC(=O)C2CCCCC2)c(C)c1	-1%	1.0%	13%	·
O=C(OCCN1C(=O)c2ccccc2C1=O)Oc1ccccc1	0%	-4.3%	11%	·
Cc1[nH]n(-c2ccc(Br)cc2)c(=O)c1C=Nc1ccc(S(=O)(=O)Nc2nccs2)cc1	-18%	-0.4%	0%	-1
CC(=O)NCC(=O)N(Cc1ccco1)C1(C(=O)NC2CCCC2)CCCCC1	2%	0.8%	11%	-3
Cc1cc2nnc(SCC(=O)N3CCCCCC3)n2c(N)n1	2%	-1.5%	-3%	-1
NCCCC[C@H]1CN=C(N)N1CCC12CC3CC(CC(C3)C1)C2	2%	3.4%	2%	4
Cc1ccc(/C=N/NC(=O)C(C)Oc2cccc3ccccc23)o1 (stereo not drawn)	-6%	2.2%	2%	·
Cc1ccc(N(CC(O)CN2C(=O)NC(C)(C)C2=O)S(=O)(=O)c2ccc(C)cc2)cc1 (stereo not drawn)	-3%	0.4%	17%	-4
CSc1nc2ccc(NS(=O)(=O)c3ccc(Br)s3)cc2s1	-2%	1.2%	-11%	-28
O=C(CCn1c(=O)oc2ccccc21)NCCCN1CCOCC1	-1%	-0.3%	11%	·
Cc1ccnc(NC(=O)CCC(=O)N(Cc2ccco2)C(C(=O)NC(C)C)c2ccc(F)cc2)c1 (stereo not drawn)	3%	1.1%	-1%	·
O=C(Cc1ccc([N+](=O)[O-])cc1)Nc1ccc2c(c1)CCC2	-20%	-1.5%	-5%	·
Cn1c(C(=O)NCc2cccs2)cc2c(=O)n(C)c3ccccc3c21	0%	1.1%	1%	1

Rewritten comma-delimited: entries from further up.
canonical_smiles,miR-21 FLuc,Rango complex inh,Rango dissoc inh,GLA inh pH 4.5
O=C(NNc1ncccc1-n1cccc1)c1ccc(Cl)cc1,0%,-2.6%,13%,-5
O=C(CC1C(=O)NCCN1Cc1ccoc1)NCc1cccc(OC(F)(F)F)c1 (stereo not drawn),3%,0.3%,-15%,-22

Later entries
SMILES	miR-21 FLuc	Rango complex inh	Rango dissoc inh	GLA inh pH 4.5
CCOc1ccc(Cc2nnc(N)s2)cc1OCC	-4%	0.2%	1%	1
COc1ccc(-n2cnnc2SCc2ncc(-c3ccccc3)o2)cc1	-10%	-0.7%	2%	1
CCCS(=O)(=O)N1CCC(C(=O)NCCCN(CC)c2cccc(C)c2)CC1	-7%	-2.8%	3%	-2
COc1ccccc1NC(=O)N1CCC(c2nnc(SCC(N)=O)n2C)CC1	2%	-0.1%	1%	-9
CCc1noc(C)c1C(=O)Nc1nc(-c2ccc(NC(C)=O)cc2)cs1	·	-3.2%	-9%	·
COc1ccc(N(C(=O)Cn2nnc3ccccc32)C(C(=O)NCc2ccco2)c2ccc(C)o2)cc1 (stereo not drawn)	-10%	3.1%	0%	3
CN(C)C=NC(=O)c1ccc(N2CCN(c3ncc(C(F)(F)F)cc3Cl)CC2)cc1	-6%	1.0%	1%	6
Cc1ccc(NC(=O)c2nn(C34CC5CC(CC(C5)C3)C4)cc2[N+](=O)[O-])cc1	-5%	-2.5%	-1%	0
O=S(=O)(c1ccc(Cl)cc1)N1CCN(c2nc(-c3cccs3)nc3ccccc23)CC1	-2%	-0.2%	19%	-9
CC(=O)c1ccc(N2CCN(S(=O)(=O)c3ccccc3)CC2)c(F)c1	1%	0.4%	-3%	1
Cc1c(Cl)ccc2c(C(=O)NCCN3CCCCC3)cc(-c3ccccn3)nc12	-5%	3.7%	-9%	2
CCOc1ccccc1NC(=O)COC(=O)CN1C(=O)NC(C)(C)C1=O	·	-0.4%	1%	·
COc1cccc(CNC(=O)Cn2c(=O)n(CCC(=O)N3CCCCC3)c(=O)c3sccc32)c1	1%	3.9%	5%	·
COc1ccc(-c2c(NC(=O)c3ccco3)oc3c(C)cccc3c2=O)cc1	4%	0.3%	7%	·
Cc1onc(-c2ccccc2)c1C(=O)Nc1ccc(Cl)c(S(=O)(=O)N2CCOCC2)c1	·	-1.5%	22%	·
CCOc1ccc(C2/C(=C(\O)c3ccc4c(c3)OCCO4)C(=O)C(=O)N2Cc2cccnc2)cc1OCC (stereo not drawn)	0%	2.4%	0%	·
COc1ccccc1N1CC(C(=O)Nc2ccc(S(=O)(=O)N3CCOCC3)cc2)CC1=O (stereo not drawn)	-4%	0.6%	-13%	6
Cc1[nH]c2ccccc2c1C(=O)CSC(=S)N1CCOCC1	-39%	-1.2%	-2%	-8
Cc1nc(=O)c(-c2ccccc2)c(C)n1-c1ccc(O)cc1	-2%	-5.2%	-4%	4
NS(=O)(=O)c1ccc(NC(=O)C2Cc3ccccc3C(=O)O2)cc1 (stereo not drawn)	-8%	0.1%	-2%	1

Exported in CSV form: part of the list above.
mol,miR-21 FLuc,Rango complex inh,Rango dissoc inh,GLA inh pH 4.5
COc1ccccc1NC(=O)N1CCC(c2nnc(SCC(N)=O)n2C)CC1,2%,-0.1%,1%,-9
CCc1noc(C)c1C(=O)Nc1nc(-c2ccc(NC(C)=O)cc2)cs1,·,-3.2%,-9%,·
COc1ccc(N(C(=O)Cn2nnc3ccccc32)C(C(=O)NCc2ccco2)c2ccc(C)o2)cc1 (stereo not drawn),-10%,3.1%,0%,3

Going on with the list:
SMILES	miR-21 FLuc	Rango complex inh	Rango dissoc inh	GLA inh pH 4.5
COc1cccc(NC(=O)Nc2cccc(C(=O)O)c2)c1	-31%	-0.8%	-6%	2
CCN(CC)N=Nc1[nH]nc2nc(C)cc(C)c12	-61%	5.1%	16%	-2
CC(CCc1ccccc1)NC(=O)COC(=O)c1cccs1 (stereo not drawn)	0%	0.1%	13%	3
O=C(COc1cccc2c1CCNC2=O)Nc1ccc(F)cc1	·	0.3%	10%	·
CCOC(=O)c1c(C)c(C(=O)N2CCN(C(=O)c3ccco3)CC2)c(C)n1C	-1%	0.1%	4%	3

The list is partial; count on the stated rates, not on these rows.
